Cruzain inh Det: cruzain (T. cruzi) inhibition with detergent; 200,000 tested, 0.43% active; purified cruzain, Z-FR-AMC fluorescence, 0.01% Triton; AID 1478; Potency, µM, for inactives: max response, negative = inhibition, most hits filed as inhibitors;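 note: plate controls were neutral wells for no effect and buffer without enzyme for full effect; nearly all actives have a fitted effect of over 40% in size; top concentration of the series not given in the record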
Target sequence (P25779 123-467 limits assumed): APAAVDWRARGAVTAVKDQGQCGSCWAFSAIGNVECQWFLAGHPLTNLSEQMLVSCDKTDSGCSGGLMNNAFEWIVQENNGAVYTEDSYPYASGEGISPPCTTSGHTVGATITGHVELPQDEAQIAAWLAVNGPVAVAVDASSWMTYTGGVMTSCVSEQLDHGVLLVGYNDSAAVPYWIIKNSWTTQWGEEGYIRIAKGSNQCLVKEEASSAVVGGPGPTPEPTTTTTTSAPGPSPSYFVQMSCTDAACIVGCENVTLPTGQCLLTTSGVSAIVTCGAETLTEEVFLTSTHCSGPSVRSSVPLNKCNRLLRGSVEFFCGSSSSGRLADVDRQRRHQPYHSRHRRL
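Sodium acetate buffer (100 mM, pH 5.5) containing 5 mM DTT and 0.01% Triton X-100 hosted 1.5 nM cruzain and test compound for 15 min at room temperature. Cleavage of 2 uM Z-FR-AMC was then tracked by fluorescence.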
RE007 growth inh: less growth of the S. pombe RE007 Vpr strain. AID 651644. S. pombe RE007 Vpr strain, BacTiter-Glo ATP luminescence, 24 h; control for the full effect not named in the record. 360,000 tested, 0.21% active. Potency, µM (series often up to 92.2 µM), for inactives: at the highest dose activity change, negative = less growth; active = well fitted falling curve with a large enough effect; inconclusive = small, poorly fitted or top-dose-only effect; inactive = no such curve, though single readings can be large or run the other way;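 note: % is set by controls: 0 for no effect and ±100 for the full control effect; nearly all actives have a fitted effect of over 50% in size; the assay follows cell death caused by Vpr and the record does not say whether a fall means rescue or toxicity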
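Fission yeast RE007 carrying one integrated HIV-1 vpr copy, seeded at OD 0.01 in PMG+AL medium with 23 nL pinned compound. Grown 24 h at 30 degrees; viability read by BacTiter-Glo luminescence after 5 min.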
NS1 function inh: influenza NS1 inhibition. S. cerevisiae slowed by influenza A NS1, growth recovery by OD600. Potency, µM (titrated, usually from 46.1 µM), for inactives: at the highest dose activity, positive = more growth. 270,000 tested, 0.4% active; active means well fitted rising curve with a large enough effect; inconclusive means small, poorly fitted or top-dose-only effect; inactive means no such curve, though single readings can be large or run the other way; note: nearly all actives have a fitted effect of over 50% in size
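Read-out: OD600 growth recovery of NS1-expressing budding yeast. Cells grown overnight at 30C in -URA glucose medium, washed, resuspended and diluted 1:100 in 2% galactose assay medium, pH 6.0. Same strain lacking NS1 served as positive control.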
Marburg entry inh: Marburg virus entry inhibition; AID 540276; Potency, µM (top dose mostly 37.8 µM), for inactives: top-dose activity change, negative = inhibition, most hits filed as inhibitors; Marburg virus pseudotyped entry inhibition, cell reporter; control for the full effect not named in the record; about a third of the inactives were read at about 46 µM; 300,000 tested, 1.8% active; active = well fitted inhibition curve with a large enough effect; inconclusive = small, poorly fitted or top-dose-only effect, or effect the other way; inactive = flat fitted curve, though single readings scatter; tested in HEK293 cells; about a fifth of its hits are not listed in these tables; note: % is set by controls: 0 for no effect and ±100 for the full control effect; luciferase read-out
2A StopGo: FMDV 2A StopGo reporter, luciferase signal. 410,000 tested, 1.2% active. Potency, µM (titrated, usually from 57.9 µM), without a hit: at the top dose signal change, negative = less light. human cells with a luciferase reporter of 2A StopGo recoding; control for the full effect not named in the record; active = well fitted falling curve with a large enough effect; inconclusive = small, poorly fitted or top-dose-only effect; inactive = no such curve, though single readings can be large or run the other way; tested in HEK293T cells; note: % is set by controls: 0 for no effect and ±100 for the full control effect; nearly all actives have a fitted effect of over 45% in size; luciferase light after 4 h
Lassa entry inh: blocks Lassa virus binding to or entry into cells. Lassa virus pseudotype entry inhibition, cell reporter; control for the full effect not named in the record. AID 540256. 300,000 tested, 1.2% active. Potency, µM (highest dose often 37.9 µM), without a hit: top-dose activity change, negative = inhibition, usual class: inhibitors; active means well fitted inhibition curve with a large enough effect; inconclusive means small, poorly fitted or top-dose-only effect, or effect the other way; inactive means flat fitted curve, though single readings scatter; tested in HEK293 cells; note: % is set by controls: 0 for no effect and ±100 for the full control effect; nearly all actives have a fitted effect of over 50% in size; luciferase read-out
Cruzain noTriton: blocks cruzain activity in detergent-free assay. AID 1476. 200,000 tested, 2.3% active. purified cruzain, Z-FR-AMC fluorescence, no detergent. P25779. Potency, µM, inactives show max response, negative = inhibition, actives largely listed as inhibitors;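 note: plate controls were enzyme without inhibitor for no effect and buffer without enzyme for full effect; nearly all actives have a fitted effect of over 40% in size; top concentration of the series not given in the record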
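Detergent-free condition (0.00005% Triton X-100) in acetate buffer pH 5.5 with DTT. 1.5 nM enzyme and compound were pre-mixed 15 min, then 2 uM Z-FR-AMC substrate added; reaction progress from fluorescence change between first and third reads (60 s).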
SARS PLpro yeast: SARS-CoV PLP inhibition in yeast. S. cerevisiae expressing SARS-CoV PLpro, growth rescue; control for the full effect not named in the record. Potency, µM (doses to about 32.9 µM), for inactives: at the highest dose activity, positive = growth rescue. 330,000 tested, 0.19% active. AID 485353; active means well fitted rising curve with a large enough effect; inconclusive means small, poorly fitted or top-dose-only effect; inactive means no such curve, though single readings can be large or run the other way; note: 0% is about no effect; nearly all actives have a fitted effect of over 55% in size; growth read by luminescence after 48 h
* marks the source's active call; other numbers are inactive results; ? = inconclusive; · = no result given; & = joins results of further samples; [ ] = another dose, or the depositor's remark. Unless noted, calls come from the whole dose curve; as a rule, active = well fitted curve in the direction sought with a large enough effect; inconclusive = small, poorly fitted or top-dose-only effect, or another doubt; inactive = no such curve, though single readings can be large; an effect the other way counts as inactive or inconclusive. Potency is the fitted concentration of half-maximal effect. The order is random, and some 4.7% of all compounds hit somewhere here.

SMILES	Cruzain inh Det	RE007 growth inh	NS1 function inh	Marburg entry inh	2A StopGo	Lassa entry inh	Cruzain noTriton	SARS PLpro yeast
O=c1c2oc3ccccc3c2n(Cc2ccccc2Cl)c(=O)n1Cc1ccco1	-1.2%	·	·	·	-10%	17%[46.1 µM]	-8%	·
CCC(CC)C(=O)Nc1cccc(C(=O)Nc2ccc(S(N)(=O)=O)cc2)c1	·	-1%	1%	6%[46.1 µM]	-10%	-25%[46.1 µM]	·	3%
CCC(=O)c1ccc(OC(C)C(=O)NC2(C#N)CCCCC2)cc1 (configuration not stated)	·	-4%	·	0%[46.1 µM]	-10%	0%[46.1 µM]	·	0%
CSc1nc2nc(C(F)(F)F)cc(-c3ccccc3)n2n1	-7.8%	3%	-2%	-11%[46.1 µM]	?	-1%	-1%	11%
CN(Cc1ccccc1)CC(O)CN(C)Cc1ccccc1	·	-6%	·	?	30%	-8%[46.1 µM]	·	·
Cc1csc(CNC(=O)CC2C(=O)NCCN2Cc2ccc(F)cc2Cl)n1 (configuration not stated)	·	0%	14%	?	-16%	0%	·	9%
COc1ccc(C2(O)CCN(C(=O)NC3CCCCC3)CC2)cc1	-2.3%	-5%	4%	3.7µM*	5%	-6%	3%	-2%
O=C(Cc1ccc(Br)cc1)Nc1cccc(-c2cn3c(n2)SCC3)c1	·	-6%	·	?	?	?	·	-2%
CC(C)Oc1ccc(C(=O)NC(=S)Nc2ccc(CN3CCOCC3)cc2)cc1	-1.2%	1%	10%	?	?	-12%	-3%	10%
CCN1C(=O)CSc2ccc(C(=O)NCCCN3CCOCC3)cc21	2.6%	14%	3%	-1%	-11%	-24%	-6%	2%
O=C(NCCCN1CCOCC1)C1CC(=O)N(c2ccccc2)C1 (configuration not stated)	·	-6%	12%	11%[46.1 µM]	-17%	8%	·	-2%
CC(C)(C)NC(=O)CSc1nc2cccnc2n1C1CCCCC1	·	-5%	-18%	·	-18%	·	·	0%
O=C(NNC(=O)c1ccccc1Cl)c1csc(N2CCOCC2)n1	·	2%	·	-7%	2%	1%	·	3%
Cc1ccc(S(=O)(=O)N2CCOCC2)cc1C(=O)OCCOc1cccc(Cl)c1	·	-11%	·	-3%	?	-17%	·	-6%
O=C(NCc1ccc(N2CCCC2=O)cc1)C1CCC(=O)N(Cc2ccccc2F)C1 (configuration not stated)	·	7%	6%	11%	2%	3%	·	1%
CCC1CCCCN1C(=O)N[C@@H](CCSC)C(=O)OC (some centres not stated)	2.2%	16%	8%	19%	-13%	8%	14%	-3%
COC(=O)c1c(NC(=O)CSc2ncnc3c2cnn3-c2ccccc2Cl)sc2c1CCCC2	-6.3%	-11%	0%	?	-21%	5.8µM*	3.2µM*	-4%
CCOC(=O)Cn1cc2c(c1-c1ccc(Cl)cc1)c(=O)n(C)c(=O)n2C	-2.5%	·	·	6%[46.1 µM]	-23%	13%[46.1 µM]	5%	·
CC(NS(=O)(=O)c1ccc(Br)cc1)C(=O)Nc1nc2ccccc2[nH]1 (configuration not stated)	·	-8%	·	-10%[46.1 µM]	-2%	0%	·	4%
COC(=O)c1c(NC(=O)/C=C/C(=O)O)sc(C)c1-c1ccc(C)c(C)c1	-6.7%	-16%	-34%	?	?	-21%	-10%	-8%
CCOC(=O)C1CN(S(=O)(=O)c2ccccc2)c2cc(S(=O)(=O)CC)ccc2O1 (configuration not stated)	1.6%	18%	-3%	?	-11%	1%	-4%	2%
COC(=O)c1cn(NC(=O)c2cc(OC)c(OC)c(OC)c2)c(=O)c2ccccc12	5.5%	13%	-6%	-23%	15%	?	-4%	-1%
Cc1cccc(N(CC(=O)NCc2ccccc2)C(=O)Cn2nnc(-c3ccc(C)o3)n2)c1	-1.1%	9%	-16%	?	-15%	1%	-8%	2%
C/C(=N\NC(=O)CCC(=O)NCc1ccccc1)c1ccco1	·	-2%	-2%	·	-7%	·	·	-5%
COc1ccccc1CP(=O)(c1ccccc1)c1ccccc1	-1.7%	-14%	-2%	5%	-19%	6%	26%	-11%
CS(=O)(=O)N1CCC(N2CCN(Cc3ccccc3)C(=O)C2=O)CC1	3.2%	·	·	·	-4%	20%[46.1 µM]	-9%	·
O=C(NC(=S)Nc1ccc(Oc2ccccc2)cc1)c1ccc(Cl)cc1	0.0%	-3%	7%	-19%	·	-56%	?	7%
CCN(CC)C(=S)SCC(=O)c1c(C)[nH]c2ccccc12	-8.5%	-3%	-5%	?	?	0%	14%	3%
COc1ccc(N2CCN(C(=O)CNC(=O)Cn3c(C)cc4ccccc4c3=O)CC2)cc1	5.1%	26%	7%	25%&25%	-19%	-5%	-14%	7%
Cc1cccc(-c2nc(CS(=O)CC(=O)NCCCSC3CCCCC3)c(C)o2)c1 (configuration not stated)	-14%	-16%	-53%	-29%&-29%	-30%	-4%	?	-5%
COc1ccc(OC)c(CNC(=O)CCn2nc(C)c3c(C)n(-c4ccccc4)nc3c2=O)c1	·	2%	9%	·	-28%	·	·	?
COc1ccc(C(=O)Nc2ccccc2C(=O)N2CCCCCC2)cc1OC	·	-17%	0%	-18%	-24%	9%	·	-1%
CS(=O)(=O)NN1C(=O)c2ccccc2NC1c1cccs1 (configuration not stated)	·	-27%	·	4%[46.1 µM]	-9%	9%	·	-5%
Cc1cc(N2CCN(C)CC2)nc2ccc(NC(=O)CCC(=O)NCc3ccco3)cc12	-11%	-12%	0%	-1%	23%	5%	-6%	1%
Cc1ccc(-c2noc(CCCC(=O)Nc3cccnc3)n2)cc1	2.8%	-4%	-56%	?	?	?	1%	-12%
CCOC(=O)N1CCN(c2c(NCc3ccc(F)cc3)c(=O)c2=O)CC1	·	0%	?	·	-4%	·	·	0%
Brc1c(CSc2nncc3ccccc23)nc2ccccn12	·	-2%	·	-11%[46.1 µM]	-3%	1%	·	-4%
COc1ccccc1N1CCN(c2nccc(C)n2)CC1	·	-24%	-6%	23%[46.1 µM]	-23%	7%[46.1 µM]	·	2%
NC(=O)CSc1nnc2ccc(-c3ccco3)nn12	·	10%	-2%	·	-11%	·	·	0%
CC1(C)CC(=O)C=C(NNC(=O)C2CCCCC2)C1	3.5%	-16%	7%	11%	-7%	?	-3%	19%
Oc1ccccc1C1SC(c2ccccc2O)SC(c2ccccc2O)S1 (configuration not stated)	·	4%	·	?	-20%	?	·	·
CS(=O)(=O)c1cccc(NC(=O)C2CC2)c1	·	4%	6%	-7%[46.1 µM]	-11%	1%[46.1 µM]	·	1%
O=C(Nc1nnc(Cc2ccccc2)s1)c1cnccn1	·	1%	2%	·	?	·	·	0%
N#C/C(=C\c1cccs1)C(=O)NCc1ccccc1	-6.3%	-2%	1%	-5%	71%[activator]	26%	-7%	13%
COc1ccc(CC(=O)NNC(=O)COc2ccc(F)cc2)cc1S(=O)(=O)N1CCOCC1	·	3%	·	-5%	5%	1%	·	1%
O=C1COc2ccc(S(=O)(=O)Nc3ccc(F)cc3)cc2N1	·	8%	6%	12%[46.1 µM]	33%[activator]	9%[46.1 µM]	·	-2%
CCN=C1SC(CC(=O)Nc2ccccc2)C(=O)N1CC (configuration not stated)	4.3%	0%&-14%	-4%	-14%	-11%&-3%	11%&-1%	-2%	23%
O=C(O)CSCC(=O)N1CCN(c2ncnc3scc(-c4ccccc4)c23)CC1	·	-4%	8%	·	-11%	·	·	4%
CC(=O)OC(C(=O)N1CCN(c2ccccc2F)CC1)c1ccccc1 (configuration not stated)	2.4%	4%	3%	?	3%	19%	0%	6%
O=C(O)CCSc1nnc(-c2ccc3c(c2)OCO3)o1	-1.5%	-13%	-8%	?	-15%	?	-10%	3%

Additional records follow:
SMILES	Cruzain inh Det	RE007 growth inh	NS1 function inh	Marburg entry inh	2A StopGo	Lassa entry inh	Cruzain noTriton	SARS PLpro yeast
COc1ccc(CCOC(=O)c2ccc(N)c([N+](=O)[O-])c2)cc1	·	-9%	-19%	·	-13%	·	·	-7%
O=C1c2ccccc2C(=O)N1CCCCN(C(=O)c1cc([N+](=O)[O-])ccc1Cl)c1ccc(Cl)cc1	0.7%	2%	19%	?	?	?	1%	-33%
Cc1cc(=O)[nH]c2c(C)cc(S(=O)(=O)NCc3ccccc3)cc12	·	22%	1%	-22%	30%	?	·	3%
O=C(Cn1c(=O)nc(-c2ccccc2)c2cc(Cl)ccc21)NCc1ccccc1	0.1%	·	·	·	14µM*	-9%[46.1 µM]	6%	·
CCCCc1ccc(NS(=O)(=O)c2ccc(N3CCCCS3(=O)=O)cc2)cc1	-12%	·	·	·	18%	-21%[46.1 µM]	?	·
CSc1nnc(-c2ccc(C(F)(F)F)nc2C)o1	·	-10%	-2%	-1%[46.1 µM]	21%	4%	·	-3%
Oc1ccc2oc3c(c2c1)CCCC3	-6.1%	-16%	-43%	17%	4%	?	-6%	-5%
O=C(c1ccc(Cl)cc1)C1C2C(=O)N(c3ccccc3)C(=O)C2C2CCCN21 (configuration not stated)	-10%	-1%	-75%	3%&-1%	-7%	25%	1%	-13%
OCCC1CN(C2CSCCSC2)CCN1Cc1ccccc1 (configuration not stated)	·	-5%	-1%	26%[46.1 µM]	1%	3%[46.1 µM]	·	0%
O=c1nc(-c2ccccc2)cn[nH]1	-0.8%	-15%	7%	7%	-1%	-7%	7%	5%
Cn1cc(CCC(=O)N2CCC3(CC2)OCCO3)c2ccccc21	5.3%	13%	-14%	25%	22%	-6%	-2%	-3%
O=C(NCc1cccs1)c1cccnc1Cl	-0.7%	19%	18%	10%	12%	?	-4%	20%
Cc1ccc(S(=O)(=O)NCCCNc2ccc([N+](=O)[O-])cc2)cc1	·	3%	-6%	?	-12%	0%[46.1 µM]	·	0%
O=C(CSc1ccc([N+](=O)[O-])cc1)Nc1nnc(C2CC2)s1	·	-9%	·	-6%	-10%	8%	·	-5%
COc1ccc(Cc2nnc(SCc3ccc([N+](=O)[O-])cc3)o2)cc1	·	5%	·	?	?	0%	·	0%
Cc1ccccc1NC(=O)C1COc2ccccc2O1 (configuration not stated)	·	-8%	1%	·	19%	·	·	4%
CCOC(=O)C1=C(CS(=O)(=O)c2ccc(F)cc2)NC(=O)NC1c1ccc(OCC)c(OC)c1 (configuration not stated)	3.7%	·	·	17%[46.1 µM]	-5%	0%[46.1 µM]	-2%	·
